Screening results from PubChem BioAssay.
Six1-Eya2 blk: blocks human Six1 binding to Eya2; Q15475+O00167; AlphaScreen GST-Six1/His-Eya2 binding, biochemical; active compounds read low; control for the full effect not named in the record; activity change, % (concentration not given with the values); 360,000 tested, 0.56% active; AID 651725; in the data active = activity change below about -65%; inconclusive = about -30% to -65%; inactive = above about -30%; also: % is scaled to controls: 0 for no effect and ±100 for the full control effect
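AlphaScreen with GST-Six1 and His-Eya2 (5X mix: 250 nM and 500 nM), glutathione donor and nickel acceptor beads; buffer 50 mM Tris pH 8.0, 300 mM NaCl, 1 mM TCEP; 1 h at 37 C in the dark.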
CtBP-E1A inh: inhibitors of CtBP/E1A interaction | AlphaScreen GST-E1A/His-CtBP binding, 1536-well; active compounds read low; control for the full effect not named in the record | activity change, % (no concentration beside the values) | 340,000 tested, 0.49% active | AID 651724; in the data active means activity change below about -65%; inconclusive means about -30% to -65%; inactive means above about -30%; also: % is scaled to controls: 0 for no effect and ±100 for the full control effect
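GST-E1A and His-tagged CtBP (125 nM each as 5X stock) were preincubated with pin-transferred compound for 2 h at 37 °C in the dark, then glutathione donor and nickel acceptor beads were added for 1 h before AlphaScreen reading.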
D2 potentiator: potentiates the human D2 dopamine receptor allosterically; 360,000 tested, 0.23% active; AID 624464; P14416; potentiation, % (no concentration beside the values); DiscoveRx D2 beta-arrestin cells, luminescence, 90 min; 100% = 57 uM dopamine signal; active = potentiation of 50% or more; inconclusive = 30% to 50%; inactive = 30% or less;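 also: compound concentration not given in the record; tested on top of an EC20 dose of dopamine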
Target sequence (P14416 whole entry, looked up): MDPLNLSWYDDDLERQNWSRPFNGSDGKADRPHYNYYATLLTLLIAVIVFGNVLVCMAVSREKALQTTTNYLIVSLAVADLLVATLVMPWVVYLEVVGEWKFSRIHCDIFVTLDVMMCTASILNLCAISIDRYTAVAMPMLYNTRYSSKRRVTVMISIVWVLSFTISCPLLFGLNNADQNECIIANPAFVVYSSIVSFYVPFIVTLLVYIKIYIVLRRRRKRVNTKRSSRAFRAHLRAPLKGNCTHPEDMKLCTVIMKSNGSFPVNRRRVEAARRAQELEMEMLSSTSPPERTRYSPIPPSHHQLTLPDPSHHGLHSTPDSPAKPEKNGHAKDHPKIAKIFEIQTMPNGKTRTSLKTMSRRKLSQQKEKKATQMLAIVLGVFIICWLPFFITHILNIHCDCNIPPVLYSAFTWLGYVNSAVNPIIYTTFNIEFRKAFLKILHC
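PathHunter beta-arrestin assay in DiscoveRx D2 cells. Compounds were added with an EC20 of dopamine (50 nM final) for 90 min at 37 deg C. Luminescence was read 1 h after detection reagent, with 57 uM dopamine as the EC100 control.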
PINK1 expr mod: changes PINK1 expression; AID 624263; Potency, µM (titrated, usually from 76.6 µM), for the others: at the highest dose activation (PINK1 increase), hits mostly activators; PINK1 immunofluorescence, high-content cytometry, 24 h; 410,000 tested, 0.2% active; active = well fitted activation curve with a large enough effect; inconclusive = small, poorly fitted or top-dose-only effect; inactive = flat fitted curve, though single readings scatter; cell line not stated here;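 also: potency is read from the fitted curve at half-maximal effect; % of control where 0% means no effect; nearly all actives have a fitted effect of over 65% in size; a mitochondrial uncoupler was the plate control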
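PINK1 protein, normally rapidly degraded, was detected by immunofluorescence after 24 hour compound treatment of a stable cell line. Titration data (5 concentrations) came from laser-scanning cytometry, with CCCP-treated wells as controls.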
D2 ag: activates the human D2 dopamine receptor. 360,000 tested, 0.084% active. activation, % (concentration not given with the values). DiscoveRx PathHunter D2 beta-arrestin, luminescence, 90 min; 100% = 57 uM dopamine signal. P14416; in the data active = activation above about 40%; inconclusive = about 15% to 40%; inactive = below about 15%; also: compound concentration not given in the record; the text of the record calls up to 30% inactive
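DiscoveRx PathHunter D2 beta-arrestin cells (2,100/well) attached overnight, then compound-stimulated 90 min at 37 C in HBSS/10 mM HEPES/0.1% Tween-20 buffer; beta-galactosidase complementation read by luminescence after 1 h at ambient temperature. Dopamine 57 uM final (EC100) as control.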
TRPML1 ag: human mucolipin-1 channel agonism. Q9GZU1. TRPML1-expressing cells, Ca2+ dye fluorescence, FDSS; host cell line not named in the record; reference of the full effect not given here. activation, % (concentration not given with the values). 410,000 tested, 0.12% active; in the data active = activation above about 50%; inconclusive = about 30% to 50%; inactive = below about 30%; also: 0% is about no effect; the text of the record puts the active cut at 80%
Target sequence (Q9GZU1 whole entry, looked up): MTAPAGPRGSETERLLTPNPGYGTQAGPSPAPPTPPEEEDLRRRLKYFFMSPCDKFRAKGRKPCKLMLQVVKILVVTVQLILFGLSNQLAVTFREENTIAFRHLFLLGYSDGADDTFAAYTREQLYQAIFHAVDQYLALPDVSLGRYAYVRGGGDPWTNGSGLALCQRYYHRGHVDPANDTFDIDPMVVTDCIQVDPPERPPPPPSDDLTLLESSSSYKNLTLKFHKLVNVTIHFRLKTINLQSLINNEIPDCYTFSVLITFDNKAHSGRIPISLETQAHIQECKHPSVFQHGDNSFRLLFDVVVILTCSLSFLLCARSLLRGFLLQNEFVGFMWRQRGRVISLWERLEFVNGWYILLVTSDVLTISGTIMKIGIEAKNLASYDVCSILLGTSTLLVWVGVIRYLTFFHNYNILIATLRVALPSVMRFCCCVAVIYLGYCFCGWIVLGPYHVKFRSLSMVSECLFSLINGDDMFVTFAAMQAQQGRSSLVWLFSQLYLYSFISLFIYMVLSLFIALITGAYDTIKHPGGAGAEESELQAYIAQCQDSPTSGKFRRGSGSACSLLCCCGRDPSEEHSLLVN
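Tetracycline-induced TRPML1-DL cells are seeded and incubated overnight before loading with a no-wash Ca2+ dye and quencher. Agonist activity is taken from the 110 s fluorescence read following compound pin-transfer on an FDSS, before EC80 54-4 challenge.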
* marks the source's active call; other numbers are inactive results; ? = inconclusive; / = not tested or not shown; & = joins results of further samples; [ ] = dose if it differs, or a comment.

SMILES	CtBP-E1A inh	Six1-Eya2 blk	D2 potentiator	PINK1 expr mod	TRPML1 ag	D2 ag
CCOC(=O)C(C)Oc1cccc2c(=O)n(CC(=O)NCCc3ccc(OC)c(OC)c3)ccc12 (stereo unspecified)	0	-2	-1	1.2%	-0.7	0.3
Cc1ccc(-n2ncc3c2CCCC3NC(=O)c2ocnc2C)cc1C (stereo unspecified)	3	7	-2	3.5%	-0.2	0.0
O=c1[nH][nH]c(-c2ccccc2O)c1C(C[N+](=O)[O-])c1ccccc1 (stereo unspecified)	3	-5	-12	5.7%	0.8	1.7
CC1(C)CC(=O)C/C(=N\NC(=O)CCc2ccc(S(=O)(=O)N3CCOCC3)cc2)C1	-2	-18	-22	1.6%	-0.6	-9.7
O=C(COC(=O)c1cc(S(=O)(=O)N2CCCCC2)ccc1N1CCOCC1)NC1CCS(=O)(=O)C1 (stereo unspecified)	0	0	-23	0.7%	-0.5	-3.0
O=C(CSc1ncnc2c1nnn2Cc1ccccc1F)N1CCN(c2ccccc2)CC1	10	0	-10	-1.4%	-0.7	-3.6
COC(=O)c1ccc2cc(OC)c(OC)cc2c1	0	-2	1	-0.2%	1.7	11
COc1ccc(O)c(/C=N/NC(=O)c2ccc(OCc3cccc(Br)c3)cc2)c1	3	0	7	11%	-0.7	6.3
CN(Cc1cccc2cnccc12)C(=O)CCc1nnc(CCc2ccccc2)o1	0	-1	2	3.8%	0.0	4.9
CCN1C(=O)c2ccccc2S(=O)c2ccc(C(=O)N3CCCC3)cc21 (stereo unspecified)	-1	10	-1	1.4%	-0.5	2.7
COc1ccc(-c2cn3cccnc3n2)cc1NC(=O)c1cc(OC)c(OC)c(OC)c1	-7	-1	11	8.2%	0.9	5.3
CCN1CCN(S(=O)(=O)c2ccc(Cl)c(C(=O)N(C)CCOc3ccc(Cl)cc3)c2)CC1	0	17	-38	0.9%	1.9	-2.5
Cc1nc(SCc2ccc(C(=O)O)cc2)c2c(C)c(C)sc2n1	-24	-12	-2	-2.9%	0.5	0.0
CSC1=NSC2=NC(=O)/C(=C/c3coc4ccc(O)cc4c3=O)C(=N)N12	-6	-67*	28	3.7%	67*	6.6
COC(=O)c1ccccc1N1C(=O)[C@@H]2C(c3ccc(F)cc3)=NO[C@@H]2C1=O	4	1	-8	5.2%[38.3 µM]	2.5	1.7
CCOc1ccc(Nc2nc(N)nc(CSC(=S)N3CCN(c4ccccc4)CC3)n2)cc1	-6	-4	-9	0.6%	-0.3	-4.7
CCN1C(=O)[C@H]2[C@@H](c3ccc(-c4ccccc4)c(OC)c3)N[C@@](Cc3ccccc3)(C(=O)OC)[C@H]2C1=O	2	0	2	0.6%	-0.8	-1.0
Cc1ccc(C(NC(=O)C2CCN(Cc3ccc(Oc4ccccc4)cc3)CC2)c2ccccn2)cc1 (stereo unspecified)	-24	-18	-16	18%	0.0	-3.9
CCOc1cc(/C=C2/C(=N)N3C=CSC3=NC2=O)ccc1OCCCOc1ccccc1C	7	0	-1	-2.8%	5.1	1.5
Cc1cc(C)n(-c2nncc(-c3ccccc3)n2)n1	?	?	1	-0.4%	1.2	-0.6
COc1cccc(CN2CC(C(=O)NCCc3ccc(C)o3)CCC2=O)c1 (stereo unspecified)	2	-2	-4	0.5%	-0.1	-0.2
COc1ccc(C(=O)NCCc2nnc3ccc(SCC(=O)Nc4ccccc4)nn23)cc1	-4	0	-9	0.3%	0.2	-1.2
COc1cccc(-c2cn(C[C@H]3CC[C@@H]([C@@H]4CC[C@H](Cn5cc(-c6cccc(OC)c6)nn5)O4)O3)nn2)c1	0	1	-4	1.7%	-0.7	-0.8
O=C(NCc1ccco1)C(c1ccc(F)cc1)N(Cc1cccnc1)C(=O)Cn1nnc2ccccc21 (stereo unspecified)	-4	5	-6	-3.9%	0.2	-2.5
CCOc1ccc(OCC(O)CN2CCc3ccccc3C2)cc1 (stereo unspecified)	/	-10	-9	2.3%	0.0	-0.6
CC(=NC1CCCCC1)c1ccc(O)cc1O	11	1	-3	-0.7%	-1.1	-1.7
Cc1cccc(/C=C2\CS/C(=C\c3cccc(C)c3)C2=O)c1	-1	-1	3	0.8%	0.1	0.8
NC(=O)CSc1nnc(-c2cccs2)n1Cc1ccco1	-1	-4	3	-0.5%	6.3	-0.8
COc1ccc(NC(=O)c2ccc(OC(=S)N(C)c3ccc(OC)cc3)cc2)cc1	0	-1	-11	11%	0.3	-1.0
COc1ccc(CCNC(=O)C2CCCN(Cc3nc(-c4cccc(Cl)c4)oc3C)C2)cc1OC (stereo unspecified)	5	1	0	-2.8%	-1.5	-1.7
Cc1oc(C(C)(C)C)cc1C(=O)Nc1ccc2c(c1)OCO2	?	-16	1	3.4%	2.1	-0.8
Cc1nc2c(OCc3cccc(Cl)c3)cccn2c1N(C)Cc1cccs1	-8	-12	-12	?	-0.8	-3.4
CCOC(=O)c1sc(NC(=O)C(CC)OC(=O)C(CC(C)C)NC(=O)c2ccccc2)nc1C (stereo unspecified)	0	-2	-5	-1.2%	1.6	-1.2
COc1ccc(-n2nc(C(=O)NCC(=O)N3CCC(C)CC3)c3ccccc3c2=O)cc1Cl	-1	-6	3	1.4%	3.0	5.0
CSc1cccc(N2CC(C(=O)N(CC(C)C)c3c(N)n(Cc4ccccc4)c(=O)[nH]c3=O)CC2=O)c1 (stereo unspecified)	5	-1	-14	2.7%	-1.0	-3.5
COc1cccc(OC)c1C(=O)Nc1ccccc1Sc1ccccc1	4	1	-4	0.4%	0.9	-2.2
O=C(N[C@@H](Cc1c[nH]c2ccccc12)C(=O)O)c1ccccc1Cl	3	-27	-2	3.2%	-0.9	0.5
CCN1C(=O)C(Cc2nc3ccccc3c(=O)n2-c2ccccc2)c2ccccc21 (stereo unspecified)	-1	-3	13	-23%[38.3 µM]	-0.8	-4.4
O=C(CNC(=O)c1ccc2ccccc2c1)NCc1ccccc1F	6	-2	1	1.4%	-0.8	-0.8
CCOc1ccc(S(=O)(=O)N2CCC(C(=O)NCC3CCCO3)CC2)cc1 (stereo unspecified)	0	2	-2	0.5%	-0.1	5.6
COc1ccc(CCNC(=O)CCc2nnc(Cc3ccc4c(c3)OCO4)o2)cc1	-1	-6	-14	0.4%	-0.7	-7.3
COc1cc(NC(=O)N2c3ccccc3Sc3ccccc32)c(C(=O)O)cc1OC	/	-26	3	3.6%	-1.3	50*
CCc1ccc(NC(=O)CSc2nc3cc(C(=O)OC)ccc3c(=O)n2CC2CCCO2)cc1 (stereo unspecified)	2	5	-14	/	-0.4	-2.1
CCCCOc1ccc(-c2nc(SCC(N)=O)n[nH]2)cc1	7	0	-3	-1.2%	0.9	-1.6
COc1cccc(OC)c1C(=O)OCC(=O)Nc1cccnc1Cl	-6	17	-8	-1.9%	-1.1	-0.2
O=C(OCc1ccccc1)N1CCC2CC1c1cc(Cl)ccc12 (stereo unspecified)	39	35	/	11%	3.4	0.4
C/C(=N\NC(=O)C(O)c1ccccc1)c1ccc(C)s1 (stereo unspecified)	2	-1	-1	3.2%	-0.5	-3.2
CC(C)c1[nH]nc2c1C(c1cccc(OC(=O)N3CCOCC3)c1)C(C#N)=C(N)O2 (stereo unspecified)	-2	-7	-4	-1.7%	0.9	1.1
Cc1ccc(NC(=O)CSc2nnc(C)c(=O)n2N)cc1	-5	6	-1	4.9%	-0.6	0.5
O=C(O)Cc1csc(-c2cccc(Oc3ccccc3)c2)n1	0&8	-5&3	0&4	-0.8%&2.4%	-0.8&0.6	0.4&-1.8

(list continues)
SMILES	CtBP-E1A inh	Six1-Eya2 blk	D2 potentiator	PINK1 expr mod	TRPML1 ag	D2 ag
CC(C)C[C@H](NC(=O)c1nc[nH]c1C(=O)NCC(=O)OCc1ccccc1)C(=O)OCc1ccccc1	0	-7	7	3.6%	0.3	-4.3
COc1ccc(-n2cnnc2SC(C)C(=O)Nc2cccc([N+](=O)[O-])c2)cc1 (stereo unspecified)	-1	2	-3	1.1%	3.1	-0.1
COc1cc(C(=O)N(C)C2CCCCC2)cc(OC)c1OC	1	12	-5	-0.2%	-0.1	-1.0
CCN(Cc1ccccc1)S(=O)(=O)c1ccc(OC)c2ncccc12	-3	1	2	1.3%	/	3.1
CC1(C)C2CC[C@]3(C)C(CC=C4[C@@H]5C[C@@](C)(CO)[C@@H]6C[C@@]5(CC[C@]43C)C(=O)O6)[C@@]2(C)CC[C@@H]1O (stereo partly specified)	3	1	0	0.2%	0.1	4.2
COC(=O)C1(C)NC(c2ccc(O)cc2)C2C(=O)N(c3ccccc3)C(=O)C21 (stereo unspecified)	-12	0	-2	-0.3%	0.9	-4.2
CN(C)S(=O)(=O)N1CCN(C(=O)N2CCOCC2)CC1	14	-1	-11	15%[38.3 µM]	0.4	-0.1
CCN(CC(=O)Nc1ccc(NC(C)=O)cc1)Cc1c(O)ccc2cc(Br)ccc12	1	6	0	-0.2%	0.8	0.0
Cc1ccc(OCC(=O)NCCc2c[nH]c3ccccc23)cc1	-5	-1	-7	-1.0%	2.4	-2.4
Nc1nonc1C(=O)NCCNCc1ccccc1OCc1ccc(F)cc1	-6	-19	-19	3.6%[38.3 µM]	0.9	-3.0
CC1(C)CC(=O)C2=C(C1)OC(N)=C(C#N)C2c1cn(-c2ccccc2)nc1-c1ccccc1 (stereo unspecified)	6	-7	-10	5.0%	0.1	-4.7
O=C1c2ccccc2C(=O)C1c1ccccn1	-11	-8	-6	0.0%	/	-3.1
Fc1ccc(C2c3[nH]c4ccccc4c3CCN2Cc2ccoc2)cc1 (stereo unspecified)	-14	-22	-7	19%	1.9	1.7
CCOP(=O)(OCC)c1nc(Cc2ccccc2)oc1NCc1ccccc1	/	3	-5	0.8%	1.0	-7.9
O=C(NNC(=S)NC(=O)c1ccco1)c1ccc(NC(=O)c2ccccc2)cc1	/	-2	1	3.6%	3.3	-1.8

An excerpt from above in order of their number in D2 potentiator, falling:
Structure	D2 potentiator
COc1ccc(-n2cnnc2SC(C)C(=O)Nc2cccc([N+](=O)[O-])c2)cc1 (stereo unspecified)	-3
CCOP(=O)(OCC)c1nc(Cc2ccccc2)oc1NCc1ccccc1	-5
Cc1ccc(OCC(=O)NCCc2c[nH]c3ccccc23)cc1	-7

3 entries out of the list, sorted by length of the SMILES, ascending:
SMILES	CtBP-E1A inh	Six1-Eya2 blk	D2 potentiator	PINK1 expr mod	TRPML1 ag	D2 ag
Fc1ccc(C2c3[nH]c4ccccc4c3CCN2Cc2ccoc2)cc1 (stereo unspecified)	-14	-22	-7	19%	1.9	1.7
CCN(CC(=O)Nc1ccc(NC(C)=O)cc1)Cc1c(O)ccc2cc(Br)ccc12	1	6	0	-0.2%	0.8	0.0
CC1(C)C2CC[C@]3(C)C(CC=C4[C@@H]5C[C@@](C)(CO)[C@@H]6C[C@@]5(CC[C@]43C)C(=O)O6)[C@@]2(C)CC[C@@H]1O (stereo partly specified)	3	1	0	0.2%	0.1	4.2

Compounds were not picked by outcome. About 1.3% of those tested had a hit in this group.
